Bioassay records (PubChem BioAssay)
B2AR ag: human beta-2 adrenergic receptor agonism by FAP. P07550. Am2.2-beta2AR cells, FAP receptor internalization, flow cytometry; reference of the scale not given here. 340,000 tested, 0.43% active. response, % (no concentration beside the values);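 active = response above a set limit, near 3 SD of response in nonfluorescent compounds, cut at about 42% in these data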;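 also: stock transfer was 100 nL into about 11 µL; a reference agonist was the positive control; negative values mostly stem from fluorescent compounds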
Target sequence (P07550 whole entry, looked up): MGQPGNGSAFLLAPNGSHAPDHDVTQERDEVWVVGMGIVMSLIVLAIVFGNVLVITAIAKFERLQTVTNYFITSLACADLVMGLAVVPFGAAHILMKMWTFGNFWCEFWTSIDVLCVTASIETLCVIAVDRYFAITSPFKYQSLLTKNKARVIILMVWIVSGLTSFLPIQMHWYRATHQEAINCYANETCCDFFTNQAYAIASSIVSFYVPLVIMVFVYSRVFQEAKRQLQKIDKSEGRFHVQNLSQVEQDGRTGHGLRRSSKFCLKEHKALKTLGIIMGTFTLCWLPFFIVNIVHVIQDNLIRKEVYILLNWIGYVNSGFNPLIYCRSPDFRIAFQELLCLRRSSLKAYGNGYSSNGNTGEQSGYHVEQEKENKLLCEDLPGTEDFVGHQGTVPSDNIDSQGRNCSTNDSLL
Bfl-1 A1 inh: inhibitors of the anti-apoptotic protein A1, read as caspase activation; AID 2462; MEF A1-2A-BIM cells, Caspase-Glo 3/7 luminescence, 3 h; percent of clofoctol response, vehicle zero; caspase activation, % (no concentration beside the values); 330,000 tested, 0.066% active;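 active = over half of replicate activation scores above 10%, or exactly half above 10 with the replicate mean above 10; inconclusive = replicate mean below 10 yet half the replicates above 10; inactive = over half of replicates below 10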;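 also: wells of about 30 µL received 50 nL stock; many hits fall short of the cut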
Vif TR-FRET: HIV-1 Vif–A3G interaction blockers – biochemical, TR-FRET, GST-Vif 1-94, biotin-A3G peptide, dose response retest, primary screen (AID 1117319); TR-FRET GST-Vif / biotin-A3G peptide binding; higher % means a stronger effect; test concentration not given here; strong numbers were not always called active; inhibition, %, or IC50 in µM where a hit was titrated; 260,000 tested, 0.57% active;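 active = above the screen mean plus three standard deviations and confirmed in dose response; inconclusive = results disagree or hit not tested in dose response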;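 also: Vif residues 1-94 fused to GST binding biotinylated APOBEC3G peptide 110-148; 0% = full assay without inhibitor and 100% = GST in place of GST-Vif; retest series ran down from 100 µM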
HNF4A DNA FP: change in binding of human HNF4 alpha to DNA; 360,000 tested, 0.3% active; HNF4a-FITC DNA binding, fluorescence polarization, 1 h; activity change, % at 10 µM; P41235; in the data active = activity change above about 30%, passing the limit was not always enough;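 also: controls were the assay level and a saturating level of protein; the project sought stronger binding though the title names inhibitors; some compounds called inactive have numbers as strong as hits; positive values seem to mean higher polarization but the record does not say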
UCH37 inh: human UCH37 deubiquitinating enzyme inhibition. Q9Y5K5. purified proteasome/UCH37, Ub-AMC cleavage fluorescence. inhibition, % (test concentration not listed). 330,000 tested, 0.33% active. AID 588478;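 active = mean of two replicates above 20%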;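 also: 0% = compound-free wells with enzyme and 100% = wells lacking proteasome; stock transfer was 100 nL into about 20 µL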
Target sequence (Q9Y5K5 whole entry, looked up): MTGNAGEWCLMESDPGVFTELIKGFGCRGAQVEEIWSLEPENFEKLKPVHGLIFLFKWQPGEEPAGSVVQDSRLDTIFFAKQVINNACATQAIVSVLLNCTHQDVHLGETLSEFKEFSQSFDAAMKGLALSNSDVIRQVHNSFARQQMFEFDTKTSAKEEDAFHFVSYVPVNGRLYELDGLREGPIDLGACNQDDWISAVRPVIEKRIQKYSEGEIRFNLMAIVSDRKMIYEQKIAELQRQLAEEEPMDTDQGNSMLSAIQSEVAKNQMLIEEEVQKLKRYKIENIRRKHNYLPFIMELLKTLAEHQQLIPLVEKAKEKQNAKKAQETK
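Reagent: Ub-AMC substrate; assay system: Proteasome-associated human UCH37 deubiquitinase; controls: no-proteasome and no-compound wells; read-out: % inhibition of Ub-AMC cleavage fluorescence; timing: 30 min preincubation with enzyme, 25 min cleavage at room temperature; signal: AMC fluorescence from Ub-AMC cleavage, excitation 355 nm, emission 460 nm; buffer or medium: Tris-HCl pH 7.4 plus ovalbumin, ATP-MgCl2, DTT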
E coli growth: inhibitors of Escherichia coli growth; OD600, 23 h; stronger effect = lower value; OD600 absorbance (no concentration beside the values); 330,000 tested, 0.21% active; AID 1053175;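 active = OD600 absorbance below the run mean of sample wells minus 3.6 SD, in any replicate, cut at about 0.56 in these data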;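 also: stock transfer was 300 nL into about 60 µL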
LANA-H2B inh: blocks KSHV LANA binding to histone H2A/H2B; Q9QR71; cell-free LANA-H2A/H2B peptide, fluorescence polarization; inhibition, % (no concentration beside the values); 320,000 tested, 0.6% active; AID 2629; in the data active = inhibition mostly above about 10%, no sharp cut-off; inactive = mostly below about 6.7%;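 also: stock transfer was 7.5 nL into about 10 µL; 0% = median of vehicle wells and 100% = median of positive control wells; one replicate is shown; the record names a cut of 25% in any replicate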
An asterisk follows results filed as active; ? = inconclusive; . = not tested or not shown; & = joins results of further samples.

The opening 4 records as a preview:
SMILES	B2AR ag	Bfl-1 A1 inh	Vif TR-FRET	HNF4A DNA FP	UCH37 inh	E coli growth	LANA-H2B inh
C=CCc1c(C)[nH]c(=S)c(C#N)c1C	2	0.1	8%	-0.2	4.1	0.76	-0.3
COC(=O)[C@]1(Cc2ccccc2)N[C@H](CN(C)C(=O)c2ccc(F)cc2)[C@@H]2C(=O)N(Cc3ccccc3)C(=O)[C@@H]21	-3	0.9	-9%	-1.6	5.1	0.67	4.7
NC(=O)CSc1cn(Cc2ccccc2)c2ccccc12	2	0.8	.	-2.8	1.9	0.67	3.9
O=C(CCNS(=O)(=O)c1cccc2nsnc12)NC1CCCc2ccccc21 (stereo not drawn)	3	1.7	-2%	0.1	2.8	0.69	-2.8

All compounds of this part, repeating the preview:
SMILES	B2AR ag	Bfl-1 A1 inh	Vif TR-FRET	HNF4A DNA FP	UCH37 inh	E coli growth	LANA-H2B inh
C=CCc1c(C)[nH]c(=S)c(C#N)c1C	2	0.1	8%	-0.2	4.1	0.76	-0.3
COC(=O)[C@]1(Cc2ccccc2)N[C@H](CN(C)C(=O)c2ccc(F)cc2)[C@@H]2C(=O)N(Cc3ccccc3)C(=O)[C@@H]21	-3	0.9	-9%	-1.6	5.1	0.67	4.7
NC(=O)CSc1cn(Cc2ccccc2)c2ccccc12	2	0.8	.	-2.8	1.9	0.67	3.9
O=C(CCNS(=O)(=O)c1cccc2nsnc12)NC1CCCc2ccccc21 (stereo not drawn)	3	1.7	-2%	0.1	2.8	0.69	-2.8
OCC1(Cc2ccccc2)CCN(Cc2ccc(-c3ccco3)cc2)CC1	-1	-0.4	?	-0.2	-0.5	0.64	-2.5
COc1ccc(NC(=O)CSc2nc3ccccc3c(=O)n2CCCO)cn1	-2	-1.6	3%	-3.9	-0.1	0.69	1.5
O=C(CNC(=O)c1cccc(Cl)c1)N/N=C/C=C/c1ccccc1	40	0.8	0%	-1.8	.	.	4.9
CC(=O)Nc1ccc(NC(=O)COC(=O)CCCc2c[nH]c3ccccc23)cc1	3	1.0	.	-0.6	1.5	0.72	3.1
O=C(NCc1cccs1)C1CCN(S(=O)(=O)N2CCCC2)CC1	-7	-0.2	6%	0.2	2.0	0.65	0.3
O=C(CC(C(=O)O)c1ccc(Cl)cc1)c1ccccc1 (stereo not drawn)	-3	1.1	-5%	1.7	-1.5	0.69	8.1
CCC1Nc2ncnc(N3CCCCC3)c2N(Cc2ccc(C)cc2)C1=O (stereo not drawn)	-5	0.6	.	-0.4&5.9	1.8	0.63	18
COc1ccc2c(c1)OC(=O)CC2c1ccccc1OC (stereo not drawn)	1	.	1%	-2.9	2.3	0.67	.
c1ccc(CN=C2Nc3ccccc3CS2)nc1	-6	-1.2	-2%	-0.5	0.0	0.66	-3.9
O=C(CN1CCN(S(=O)(=O)c2ccccc2)CC1)NC(=O)NC1CCCCC1	-6	0.2	5%	2.3	3.4	0.69	-1.4
C=CCNC(=S)NNC(=O)c1cc(-c2cccnc2)nc2ccccc12	-9	-8.5	0%	-2.1	8.1	0.69	0.1

Reformatted bar-delimited: entries from further up.
SMILES | B2AR ag | Bfl-1 A1 inh | Vif TR-FRET | HNF4A DNA FP | UCH37 inh | E coli growth | LANA-H2B inh
O=C(CNC(=O)c1cccc(Cl)c1)N/N=C/C=C/c1ccccc1 | 40 | 0.8 | 0% | -1.8 | . | . | 4.9
CC(=O)Nc1ccc(NC(=O)COC(=O)CCCc2c[nH]c3ccccc23)cc1 | 3 | 1.0 | . | -0.6 | 1.5 | 0.72 | 3.1

Sorted by length of the SMILES (largest number first): part of the list above.
SMILES	B2AR ag	Bfl-1 A1 inh	Vif TR-FRET	HNF4A DNA FP	UCH37 inh	E coli growth	LANA-H2B inh
COC(=O)[C@]1(Cc2ccccc2)N[C@H](CN(C)C(=O)c2ccc(F)cc2)[C@@H]2C(=O)N(Cc3ccccc3)C(=O)[C@@H]21	-3	0.9	-9%	-1.6	5.1	0.67	4.7
CC(=O)Nc1ccc(NC(=O)COC(=O)CCCc2c[nH]c3ccccc23)cc1	3	1.0	.	-0.6	1.5	0.72	3.1
C=CCNC(=S)NNC(=O)c1cc(-c2cccnc2)nc2ccccc12	-9	-8.5	0%	-2.1	8.1	0.69	0.1

(continued)
SMILES	B2AR ag	Bfl-1 A1 inh	Vif TR-FRET	HNF4A DNA FP	UCH37 inh	E coli growth	LANA-H2B inh
O=C(N/N=C/c1cn(-c2ccccc2)nc1-c1cccnc1)c1ccccc1	-5	-0.4	15%	1.6	.	.	-1.1
O=[N+]([O-])c1ccc(N(c2ccccc2)c2ccccc2)cc1	6	-0.1	?	1.4	-1.8	0.68	-5.2
O=C1S/C(=C/c2ccc(N3CCOCC3)o2)C(=O)N1Cc1ccc(F)cc1	-67	0.5	27%	187	6.6	0.71	-1.4
COc1ccc(-c2csc(Nc3ccc(S(N)(=O)=O)cc3)n2)cc1	13	0.6	?	5.8	-195	0.74	-2.3
O=C(c1ccc(-c2ccccc2)cc1)C1CCCN(C(=O)c2cncs2)C1 (stereo not drawn)	-7	0.0	3%	1.2	2.9	0.69	3.8
COc1cc(/C=C(\C#N)C(=O)Nc2ccccc2F)ccc1OCCN1CCOCC1	12	-0.6	2%	-1.2	6.3	0.72	0.3
CC(OC(=O)/C=C/c1ccco1)C(=O)Nc1cccc([N+](=O)[O-])c1 (stereo not drawn)	-14	0.2	.	1.7	1.8	0.65	-0.9
COc1cc(C[C@@H](C)[C@@H](C)Cc2ccc(O)c(OC)c2)ccc1O	13	0.4	.	3.9	-0.1	.	-5.4
CCN(CC)S(=O)(=O)c1ccc(C(=O)Nc2ccc(C(F)(F)F)n(C)c2=O)cc1	-3	0.3	-7%	-0.3	-65	0.71	0.7
O=C(Oc1ccccc1OC(=O)N1CCOCC1)N1CCOCC1	-4	1.0	-5%	1.8	1.2	0.74	-5.5
O=C(/C=N/O)Nc1ccccc1	-2	1.2	1%	1.3	.	.	4.9
C[C@@H](OC(=O)c1[nH]cnc1C(=O)N1CCc2ccccc2C1)c1ccccc1	-4	0.0	.	4.2	-33	0.78	0.5
O=C(/C=C/c1ccc(Br)o1)NCc1ccccc1	7	0.3	7%	-29	4.6	0.68	-6.4
O=C(Nc1cccc(F)c1)/C(=C\c1cccnc1)NC(=O)c1ccco1	-1	0.0	0%	2.4	5.5	.	-2.1
CCCCNCCOc1ccccc1-c1ccccc1	1	0.4	-9%	0.8	1.2	0.67	-3.2
COC(=O)c1ccccc1C(=O)N1CCCC(CCC(=O)NCc2ccc(F)c(F)c2)C1 (stereo not drawn)	3	0.2	-2%	-1.9	0.9	0.69	1.1
O=[N+]([O-])c1ccc(N=Cc2ccc(Br)c([N+](=O)[O-])c2)cc1	3	0.5	.	-1.2	11	0.69	-2.3
